# Screening data as filed in PubChem.
# Menin MLL FP FL: inhibitors of human menin-MLL interaction, wild-type MLL peptide | FP activity change, % at 61.4 µM | 290,000 tested, under 10 active | Fluorescence polarization, fluorescein-MLL peptide displacement from menin | AID 1766; inconclusive = falling polarisation curve, or a change in total fluorescence; inactive = total fluorescence flat and polarisation flat or rising; no compound was filed as active; the % refers to the polarisation; negative = inhibition;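 further: % of control where 0% means no effect; inhibitors lower the polarisation; unlabelled MLL peptide was the positive control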
# gsp antag: gsp mutant antagonism | gsp-mutant cells, cAMP HTRF, 30 min; control for the full effect not named in the record | Potency, µM (titrated, usually from 76.9 µM), for inactives: at the top dose activity change, negative = inhibition, actives largely listed as inhibitors | 340,000 compounds, 0.4% hits; active = falling curve of any shape with a large fitted effect; inconclusive = falling curve, mostly with a smaller effect; inactive = flat or rising curve; cell line not stated here;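 further: intracellular cAMP measured with PDE inhibitor Ro 20-1724 present during compound exposure; potency means the concentration at half of the fitted maximal effect; on the % scale 0 is the no-effect control and ±100 the full control effect; nearly all actives have a fitted effect of over 65% in size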
#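 Cells, 2000/well, grown 16–24 h in DMEM 10% FBS with 0.5 mg/ml G418, then compounds plus […] (300 uM addition stock), 30 min at 37C. cAMP read by HTRF (cAMP-d2 and anti-cAMP antibody-K in lysis buffer) after 30 min RT.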
# gsp agonist: gsp mutant agonism | gsp mutant cells, cAMP HTRF, 30 min; control for the full effect not named in the record | Potency, µM (titrated, usually from 76.9 µM), inactives show at the highest dose activation (cAMP increase), actives largely listed as activators | 340,000 compounds, 0.13% hits; active = well fitted activation curve with a large enough effect; inconclusive = small, poorly fitted or top-dose-only effect, or another doubt; inactive = no such curve, though single readings can be large or run the other way; cell line not stated here;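 further: phosphodiesterase inhibitor Ro 20-1724 added with compounds to block cAMP breakdown; potency means the concentration at half of the fitted maximal effect; nearly all actives have a fitted effect of over 60% in size; about a fifth of the inactives were tested at one dose only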
#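 Cells in DMEM/10% FBS with G418 were pretreated with compounds in DMSO plus […] (300 uM stock) for 30 min at 37C. cAMP was measured by HTRF (cAMP-d2 plus anti-cAMP antibody-K) after 30 min at room temperature.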
# ClpP mod: qHTS Assay for Activators of ClpP; ATP-dependent Clp protease proteolytic subunit (Bacillus subtilis (strain 168)), P80244; purified B. subtilis ClpP, FRET peptide cleavage, 20 min; Potency, µM (series often up to 57.5 µM), for the others: at the highest dose activity change, negative = active; 340,000 compounds, 1.9% hits; active = well fitted falling curve with a large enough effect; inconclusive = small, poorly fitted or top-dose-only effect; inactive = no such curve, though single readings can be large or run the other way; further: potency means the concentration at half of the fitted maximal effect; the source files actives as falling curves though it sought activators and does not explain the sign; nearly all actives have a fitted effect of over 65% in size; many hits overshoot -100%
# Target sequence (P80244 whole entry, looked up): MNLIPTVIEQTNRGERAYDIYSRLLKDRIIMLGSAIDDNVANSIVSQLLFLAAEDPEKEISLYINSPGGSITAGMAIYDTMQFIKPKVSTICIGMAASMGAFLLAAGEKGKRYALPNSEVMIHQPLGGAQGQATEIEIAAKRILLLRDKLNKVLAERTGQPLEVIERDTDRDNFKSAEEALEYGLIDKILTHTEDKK
#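 FRET quenching reversal measured ClpP activation: 10 microg/mL B. subtilis ClpP at pH 8 with the FRET-FV decapeptide, read at 430 nm after 320 nm excitation. The 20-min minus 0-min signal was scaled between DMSO/no-enzyme wells and ADEP (5.8 microM final).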
# TRPML1 ag: human mucolipin-1 channel agonism | 410,000 compounds, 0.12% hits | activation, % (concentration not given with the values) | AID 624414 | TRPML1-expressing cells, Ca2+ dye fluorescence, FDSS; host cell line not named in the record; reference of the full effect not given here; in the data active = activation above about 50%; inconclusive = about 30% to 50%; inactive = below about 30%; further: 0% is about no effect; the text of the record puts the active cut at 80%
# Target sequence (Q9GZU1 whole entry, looked up): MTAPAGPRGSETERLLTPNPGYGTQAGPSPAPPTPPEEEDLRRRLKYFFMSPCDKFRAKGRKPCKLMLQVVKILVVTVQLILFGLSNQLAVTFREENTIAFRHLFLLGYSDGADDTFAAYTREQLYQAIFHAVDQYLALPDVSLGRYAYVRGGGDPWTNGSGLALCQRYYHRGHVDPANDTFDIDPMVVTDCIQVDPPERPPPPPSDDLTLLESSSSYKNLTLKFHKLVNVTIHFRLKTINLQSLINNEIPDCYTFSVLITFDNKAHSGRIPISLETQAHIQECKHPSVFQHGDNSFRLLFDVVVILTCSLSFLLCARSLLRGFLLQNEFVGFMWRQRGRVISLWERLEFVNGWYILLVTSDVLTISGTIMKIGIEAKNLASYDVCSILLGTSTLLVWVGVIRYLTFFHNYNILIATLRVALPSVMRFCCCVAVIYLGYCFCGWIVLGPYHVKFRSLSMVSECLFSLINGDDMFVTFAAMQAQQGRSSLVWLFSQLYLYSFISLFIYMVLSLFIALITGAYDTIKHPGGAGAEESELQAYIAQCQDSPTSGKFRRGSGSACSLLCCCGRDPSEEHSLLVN
#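 Tetracycline-induced TRPML1-DL cells are seeded and incubated overnight before loading with a no-wash Ca2+ dye and quencher. Agonist activity is taken from the 110 s fluorescence read following compound pin-transfer on an FDSS, before EC80 54-4 challenge.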
# TRPML1 inh: blocks the human TRPML1 channel | TRPML1-inducible cells, Ca2+ dye fluorescence, FDSS; active compounds read low; inhibition of EC80 agonist-evoked calcium signal | Q9GZU1 | 390,000 compounds, 0.02% hits | activity change, negative = inhibition, % (test concentration not listed); in the data active means activity change below about -50%; inconclusive means about -30% to -50%; inactive means above about -30%;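 further: stimulus is agonist 54-4 at its EC80 concentration; on the % scale 0 is the no-effect control and ±100 the full control effect; compound concentration not given in the record; the text of the record puts the active cut at -80%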
#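 Calcium fluorescence in TRPML1-DL cells induced overnight with Tet: a 110 s read after compound pin addition, then a 110 s antagonist read after challenge with 54-4 at 4 uM final (EC80).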
# An asterisk follows results filed as active; ? = inconclusive; . = no result given; [ ] = another dose, or the depositor's remark.
# The opening 13 compounds, to show the layout:
cpd	Molecule	Menin MLL FP FL	gsp antag	gsp agonist
1	CCCCn1nnnc1NCc1cccs1	-3.0	5%	5%
2	CC(C)NC(=O)N1CCC(c2nc3ccccc3s2)CC1	-1.2	4%	?
3	O=C(CBr)N1CCc2ccccc2C(c2ccccc2)C1 (configuration not stated)	-2.3	0%	2%[15.4 µM]
4	O=[N+]([O-])c1ccc(C(=S)N2CCC(Cc3ccccc3)CC2)cc1	4.0	13%	1%
5	CC1CCCCN1S(=O)(=O)c1ccc(S(=O)(=O)N2CCN(c3ccccc3)CC2)cc1 (configuration not stated)	0.0	10%	-36%[inhibitor]
6	CCOc1ccc(N2C(=O)CC(n3nc(C)cc3C)C2=O)cc1 (configuration not stated)	1.5	7%	-3%
7	CCOC(=O)c1cc(=O)n(Cc2ccccc2C)c2ccccc12	3.3	-26%	-6%
8	C/C(=N\NC(=O)CNC(=O)c1ccncc1)c1ccc(C)cc1	1.3	12%	16%[15.4 µM]
9	COc1ccccc1NC(=O)c1ccc(NC(=O)c2nc3nccc(C)n3n2)cc1	.	-3%	2%
10	O=C(CCC(=O)NNC(=O)COc1ccc(Br)cc1Br)NCc1ccccc1	2.0	4%	9%[15.4 µM]

cpd	ClpP mod	TRPML1 ag	TRPML1 inh
1	-2.8%	-0.3	-4
2	0.5%	-0.5	-14
3	.	0.6	18
4	-2.4%	-0.1	1
5	1.0%	-0.3	7
6	-1.0%	0.0	10
7	-11%	4.9	18
8	.	0.4	-1
9	-0.2%	1.2	9
10	.	-0.7	4

cpd	Molecule	Menin MLL FP FL	gsp antag	gsp agonist
11	COc1ccccc1C1=NNC(=NCc2ccccc2)SC1	-8.3	.	15%[15.4 µM]
12	CCN(CC)S(=O)(=O)c1ccc(N/N=C(\C)c2ccc(OC)cc2O)nc1	3.0	-11%	3%
13	CCn1c(C)[n+](CCOCC[n+]2c(C)n(CC)c3cc(Cl)c(Cl)cc32)c2cc(Cl)c(Cl)cc21	0.7	1%	4%

cpd	ClpP mod	TRPML1 ag	TRPML1 inh
11	.	0.6	-23
12	-3.6%	-0.1	8
13	-1.0%	0.4	-11

# The list itself, previewed entries included:
cpd	Molecule	Menin MLL FP FL	gsp antag	gsp agonist
1	CCCCn1nnnc1NCc1cccs1	-3.0	5%	5%
2	CC(C)NC(=O)N1CCC(c2nc3ccccc3s2)CC1	-1.2	4%	?
3	O=C(CBr)N1CCc2ccccc2C(c2ccccc2)C1 (configuration not stated)	-2.3	0%	2%[15.4 µM]
4	O=[N+]([O-])c1ccc(C(=S)N2CCC(Cc3ccccc3)CC2)cc1	4.0	13%	1%
5	CC1CCCCN1S(=O)(=O)c1ccc(S(=O)(=O)N2CCN(c3ccccc3)CC2)cc1 (configuration not stated)	0.0	10%	-36%[inhibitor]
6	CCOc1ccc(N2C(=O)CC(n3nc(C)cc3C)C2=O)cc1 (configuration not stated)	1.5	7%	-3%
7	CCOC(=O)c1cc(=O)n(Cc2ccccc2C)c2ccccc12	3.3	-26%	-6%
8	C/C(=N\NC(=O)CNC(=O)c1ccncc1)c1ccc(C)cc1	1.3	12%	16%[15.4 µM]

cpd	ClpP mod	TRPML1 ag	TRPML1 inh
1	-2.8%	-0.3	-4
2	0.5%	-0.5	-14
3	.	0.6	18
4	-2.4%	-0.1	1
5	1.0%	-0.3	7
6	-1.0%	0.0	10
7	-11%	4.9	18
8	.	0.4	-1

# Continued:
cpd	Molecule	Menin MLL FP FL	gsp antag	gsp agonist
9	COc1ccccc1NC(=O)c1ccc(NC(=O)c2nc3nccc(C)n3n2)cc1	.	-3%	2%
10	O=C(CCC(=O)NNC(=O)COc1ccc(Br)cc1Br)NCc1ccccc1	2.0	4%	9%[15.4 µM]
11	COc1ccccc1C1=NNC(=NCc2ccccc2)SC1	-8.3	.	15%[15.4 µM]
12	CCN(CC)S(=O)(=O)c1ccc(N/N=C(\C)c2ccc(OC)cc2O)nc1	3.0	-11%	3%
13	CCn1c(C)[n+](CCOCC[n+]2c(C)n(CC)c3cc(Cl)c(Cl)cc32)c2cc(Cl)c(Cl)cc21	0.7	1%	4%
14	CNS(=O)(=O)c1cnccc1N1CCN(C)CC1	1.2	17%	17%
15	Cc1onc(C(=O)NN)c1C(=O)N1CCN(C(c2ccccc2)c2ccccc2)CC1	-7.7	?	-27%
16	O=C(NCCN1CCCCCC1)C1CC(=O)N(CCc2ccccc2)C1 (configuration not stated)	4.3	11%	-4%

cpd	ClpP mod	TRPML1 ag	TRPML1 inh
9	-0.2%	1.2	9
10	.	-0.7	4
11	.	0.6	-23
12	-3.6%	-0.1	8
13	-1.0%	0.4	-11
14	-1.1%	0.0	4
15	.	-0.1	-4
16	0.2%	2.7	-15

# (list continues)
cpd	Molecule	Menin MLL FP FL	gsp antag	gsp agonist
17	Cc1nnsc1C(=O)N/N=C/c1c(F)cccc1Cl	-0.8	20%	-9%[15.4 µM]
18	Cc1ccc(NC(=O)C(c2ccccc2)N2CCN(CC(=O)N3CCOCC3)CC2)cc1Cl (configuration not stated)	.	4%	-7%
19	Cc1ccc(/C=N/NC(=O)C(C)Oc2ccccc2[N+](=O)[O-])s1 (configuration not stated)	-1.8	11µM*	-9%
20	COc1ccc(CCNC(=O)Cn2ccc3cc(S(=O)(=O)N4CCCC4)ccc32)cc1OC	-0.9	-15%	-7%
21	Cc1c(C(=O)Nc2cccc(C#N)c2)sc2nc3n(c(=O)c12)CCCCC3	.	.	.
22	CC(=O)[C@@]1(O)CC[C@H]2[C@@H]3CCC4=CC(=O)CC[C@]4(C)[C@H]3[C@@H](O)C[C@@]21C	0.0	-12%	.
23	COc1ccccc1-n1cnc2sc(-c3ccccc3)cc2c1=O	1.8	-1%	-7%
24	Cc1c(C(=O)OCC(=O)N2CC(=O)Nc3ccccc32)oc2ccccc12	2.5	-5%	16%

cpd	ClpP mod	TRPML1 ag	TRPML1 inh
17	.	-0.2	11
18	-4.1%	2.4	11
19	-0.4%	1.7	9
20	0.7%	-0.6	-12
21	-0.2%	-0.5	13
22	-2.0%	-0.3	2
23	-1.9%	-0.2	-1
24	-2.3%	0.3	-23

# Record cards, as listed above. Screens in order: Menin MLL FP FL	gsp antag	gsp agonist	ClpP mod	TRPML1 ag	TRPML1 inh
# COc1ccccc1-n1cnc2sc(-c3ccccc3)cc2c1=O in the list: 1.8	-1%	-7%	-1.9%	-0.2	-1
# Cc1c(C(=O)Nc2cccc(C#N)c2)sc2nc3n(c(=O)c12)CCCCC3 in the list: .	.	.	-0.2%	-0.5	13
# Cc1nnsc1C(=O)N/N=C/c1c(F)cccc1Cl in the list: -0.8	20%	-9%[15.4 µM]	.	-0.2	11

# Other structures follow.
cpd	Molecule	Menin MLL FP FL	gsp antag	gsp agonist
25	O=C(Nc1ccc(-c2nc3ccccc3[nH]2)cc1)c1ccc(N2C(=O)CCC2=O)cc1	5.3	-6%	2%
26	CCOc1ccc(N2CC(C(=O)NC3=NCCS3)CC2=O)cc1 (configuration not stated)	-1.9	0%	?
27	CCn1c(C)nc2c1C(=O)c1ccccc1C2=O	1.5	17%	2%
28	CC(C)(Oc1ccc(Cl)cc1)C(=O)Nc1ncccn1	-3.2	5%	23%
29	COc1ccc(/C=C2\CN(Cc3ccccc3)C/C(=C\c3ccc(OC)cc3OC)C2=O)c(OC)c1	2.6	-8%	-23%
30	CCc1ccc(OCC2c3cc(OC)c(OC)cc3CCN2C(=O)c2ccc(S(=O)(=O)N3CCCC3)cc2)cc1 (configuration not stated)	.	.	.
31	CCOc1ccc(S(=O)(=O)N(CC(N)=O)c2ccc(C)cc2)cc1	-1.1	5%	-19%
32	Cc1ccc(CNC(=O)C(=O)NCC2OCCCN2S(=O)(=O)c2cccs2)cc1 (configuration not stated)	.	-1%	-9%
33	CS(=O)(=O)NN1C(=O)c2ccccc2NC1c1ccccc1O (configuration not stated)	-5.7	6%	-9%[15.4 µM]
34	CC(C)c1nc(=S)n(-c2ccccc2)[nH]1	-0.3	6%	6%
35	COc1ccc(NC(=O)C2CCCN2C(=O)Nc2cccc(F)c2)cc1 (configuration not stated)	-2.0	4%	10%[15.4 µM]

cpd	ClpP mod	TRPML1 ag	TRPML1 inh
25	22µM*	-0.5	14
26	-0.2%	1.2	6
27	2.1%	3.2	0
28	-1.7%	1.0	10
29	-3.8%	1.2	-5
30	1.5%	1.9	12
31	-0.3%	-0.7	-6
32	-22%	1.1	38
33	.	-1.0	35
34	0.5%	4.4	6
35	.	0.2	1
